Screening results as filed in PubChem BioAssay.
VDR inhibitor = Inhibitors of the vitamin D receptor (VDR): qHTS. Potency, µM, inactives show max response, negative = inhibition, hits mostly inhibitors. 400,000 compounds, 0.93% hits. VDR-SRC2-3 peptide fluorescence polarization, 2 h. Vitamin D3 receptor (Homo sapiens), P11473; active = well fitted inhibition curve with a large enough effect; inconclusive = small, poorly fitted or top-dose-only effect, or another doubt; inactive = no such curve, though single readings can be large or run the other way; also: series mostly up to about 120 µM
Target sequence (P11473 whole entry, looked up): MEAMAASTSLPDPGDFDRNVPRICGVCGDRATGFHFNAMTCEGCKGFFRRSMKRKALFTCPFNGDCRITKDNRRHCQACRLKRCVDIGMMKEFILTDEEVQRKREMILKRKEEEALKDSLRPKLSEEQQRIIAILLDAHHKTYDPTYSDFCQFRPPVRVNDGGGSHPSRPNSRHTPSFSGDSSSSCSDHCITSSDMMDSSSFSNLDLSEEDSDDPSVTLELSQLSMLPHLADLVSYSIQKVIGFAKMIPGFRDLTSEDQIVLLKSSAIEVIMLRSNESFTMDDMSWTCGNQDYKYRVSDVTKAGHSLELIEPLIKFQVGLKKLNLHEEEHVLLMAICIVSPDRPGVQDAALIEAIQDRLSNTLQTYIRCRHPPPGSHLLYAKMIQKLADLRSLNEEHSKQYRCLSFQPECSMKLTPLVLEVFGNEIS
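After 23 nl compound addition and a short centrifugation, plates sat for 2 hours at ambient temperature; polarization of fluorescence then indicated loss of VDR binding to peptide SRC2-3.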
* marks the source's active call; other numbers are inactive results; ? = inconclusive; & = joins results of further samples; [ ] = remark or other dose. % is scaled to controls: 0 for no effect and ±100 for the full control effect; potency is read from the fitted curve at half-maximal effect. A portion of the library; the hit share may differ from the screen's.

VDR inhibitor	Compound
-1%	O=C(O)Cc1sc(-c2ccccc2)nc1-c1cccs1
-20%	Cc1ccc(-n2c(SCC(=O)NCc3ccco3)nnc2-c2cccnc2)cc1
-3%	O=C(Nc1cccc(-c2nc3ccccc3o2)c1)c1ccc(-c2ccc(Br)cc2)o1
-18%	CCOC(=O)c1cn(CC)c2cc(Cl)c([N+](=O)[O-])cc2c1=O
-19%	COc1cccc(NC(=O)CN(C)C(=O)c2ccc(OCC3CCCO3)cc2)c1 (centres undefined)
-10%	C/C(=N\N=C1/SC(CC(=O)O)C(=O)N1c1ccccc1)c1ccc(C)cc1 (centres undefined)
20%	Cc1sc2nc(SCC(=O)NCCOCCO)nc(N)c2c1C
-8%	O=S1(=O)CCOC[C@H](c2ccccc2)N1Cc1cccc(Cl)c1
-16%	N#CCCN(C(=O)CSc1ccc2c(c1)OCCO2)c1ccc(F)cc1
-23%	Cc1ccc(Sc2ccc(N3CCCC(C(=O)Nc4ccc(Cl)cc4)C3)nn2)cc1 (centres undefined)
2%	CC(Sc1ncnc2c1cnn2-c1ccccc1)C(=O)Nc1ccc(N2CCOCC2)cc1 (centres undefined)
2%	Cc1c(C(c2cc3c(cc2Br)OCO3)c2c(C)n(C)n(-c3ccccc3)c2=O)c(=O)n(-c2ccccc2)n1C

5 entries out of the list, arranged by molar mass, ascending.
VDR inhibitor	Compound
-1%	O=C(O)Cc1sc(-c2ccccc2)nc1-c1cccs1
-18%	CCOC(=O)c1cn(CC)c2cc(Cl)c([N+](=O)[O-])cc2c1=O
-16%	N#CCCN(C(=O)CSc1ccc2c(c1)OCCO2)c1ccc(F)cc1
-3%	O=C(Nc1cccc(-c2nc3ccccc3o2)c1)c1ccc(-c2ccc(Br)cc2)o1
2%	CC(Sc1ncnc2c1cnn2-c1ccccc1)C(=O)Nc1ccc(N2CCOCC2)cc1 (centres undefined)

The results go on:
VDR inhibitor	Compound
-10%	CCOC(=O)C1(Cc2ccccc2C)CCCN(C(=O)c2ccc(CSC)o2)C1 (centres undefined)
-2%	CCN(CC)C(=O)Cn1cc(SCC(=O)Nc2ccc(C)cc2)c2ccccc21
-5%	Cc1ccc(Cl)cc1N1CCN(C(=O)C2CCC(=O)N2C(C)C)CC1 (centres undefined)
-17%	O=C(NC1CC1)c1cc(F)c(F)cc1Cl
-13%	CC(C)NC(=O)N(C)C[C@H]1Oc2ccc(NC(=O)Nc3ccc(C(F)(F)F)cc3)cc2C(=O)N([C@H](C)CO)C[C@@H]1C
50µM*	FC(F)(F)c1ccccc1-c1nc(-n2ccnc2)c2ccccc2n1
6%	COc1ccc(C2(C(=O)NCCCN3CCOCC3)CCOCC2)cc1
-20%	CC1CSc2nnc(CCc3ccccc3)n21 (centres undefined)
6%	O=C(CCCOc1ccc(Cl)cc1Cl)N/N=C/c1ccccc1O
?	COc1cccc(NC(=O)Cn2cnc3sc(C)c(S(=O)(=O)N4CCN(C)CC4)c3c2=O)c1
0%	CCOc1ccc2c(c1)/C(=C(\C(Cl)=C(Cl)Cl)[N+](=O)[O-])N2
10%	Cc1nc2nncn2c(Nc2ccc(F)cc2)c1C

Reprinted from the part before: 6 compounds, then new ones.
VDR inhibitor	Compound
6%	COc1ccc(C2(C(=O)NCCCN3CCOCC3)CCOCC2)cc1
-20%	CC1CSc2nnc(CCc3ccccc3)n21 (centres undefined)
6%	O=C(CCCOc1ccc(Cl)cc1Cl)N/N=C/c1ccccc1O
?	COc1cccc(NC(=O)Cn2cnc3sc(C)c(S(=O)(=O)N4CCN(C)CC4)c3c2=O)c1
0%	CCOc1ccc2c(c1)/C(=C(\C(Cl)=C(Cl)Cl)[N+](=O)[O-])N2
10%	Cc1nc2nncn2c(Nc2ccc(F)cc2)c1C
3%	COc1cc(NC(=O)c2ccco2)c(OC)cc1NC(=O)Nc1cccc(Cl)c1
-4%	CCN(CC)CC(=O)Nc1sc(C)c(C)c1C(=O)c1ccc(C)cc1
3%	CCOC(=O)Cn1c(=O)n(CC2CCCO2)c2nc(-c3cc(OC)ccc3OC)nc(C(N)=O)c21 (centres undefined)
7%	O=C(C[n+]1cccc(O)c1)Nc1ccc(Br)cc1
8%	CCOc1ccc(N(C(=O)Cn2nnc3ccccc32)C(C(=O)NCc2ccccc2)c2ccc(OC)cc2)cc1 (centres undefined)
11%	Cc1cccc(C)c1OCc1cc(C(=O)N2CCNC(=O)C2)no1
6%	CC1CCC(NC(=O)c2ccc3snnc3c2)CC1 (centres undefined)
-2%	CC(=O)c1c(C)nn(CC(=O)NC2CCCN(Cc3ccc(CC(C)C)cc3)C2)c1C (centres undefined)
10%	Cn1c(C(=O)NCC2CCCO2)cc2c(=O)[nH]c3ccccc3c21 (centres undefined)
-5%	CCOc1ccc2nc(NC(=O)C3CCCN(S(=O)(=O)c4cccs4)C3)sc2c1 (centres undefined)
15%	Cc1ccc(OCCn2c(C)nc3ccccc32)cc1
-9%	COc1ccccc1N1CCN(C(=O)CSc2nc3ccccc3c(=O)n2CC2CCCO2)CC1 (centres undefined)

Next part.
VDR inhibitor	Compound
0%	CCn1c(SC/C=C/c2ccccc2)nnc1-c1cccs1
10%	CS(=O)(=O)n1nc(-c2ccccc2)nc1N
-2%	Cn1c(COc2ccccc2)nnc1SCc1cc(=O)[nH]c2ccccc12
3%	CSc1nnc(-c2ccccc2N=Cc2c(C)[nH]n(-c3ccc4ccccc4c3)c2=O)c(=O)[nH]1
-13%	Cc1cc(C)c(NC(=O)CNC(=O)CN2C(=O)NC3(CCCc4ccccc43)C2=O)c(C)c1 (centres undefined)
-11%	Cc1cc(=O)oc2cc(OCC(=O)Nc3c(C(C)C)cccc3C(C)C)ccc12
3%	O=C(CS(=O)CC(=O)N(c1ccccc1)C(C(=O)NC1CCCC1)c1cccs1)Nc1ccc(F)cc1 (centres undefined)
6%	CC(=O)Nc1ccccc1C(=O)N1CCc2ccccc21
8%	O=C(COc1ccccc1)Nc1ccc2oc(=O)ccc2c1
-18%	NNC(=O)c1csc(-c2ncc(C(F)(F)F)cc2Cl)n1
4%	O=C(NCc1ccccn1)c1nn(-c2ccccc2)c(=O)c2ccccc12
12%	NS(=O)(=O)c1ccc(CCNC(=O)c2cc3ccccc3s2)cc1

Additional entries
VDR inhibitor	Compound
2%	CCOC(=O)c1sc(N(C)C(C)=O)nc1C
?	CC(=O)N1CCN(c2ccc(NCc3ccc(Br)o3)cc2)CC1
1%	O=C(Nc1ccccc1Cl)C1Cc2ccccc2O/C1=N\O (centres undefined)
-9%	CC(=O)c1sc(-c2ccccc2Cl)nc1C
-1%	O=C(Nc1nccs1)C1=COCCO1
-15%	Cc1ccc(O)c(-c2cc(C(=O)NCc3ccccc3)[nH]n2)c1
5%	COc1ccc2c(c1)c(N1CCCC1=O)c(C(=O)Nc1cc(C)c(Cl)cc1OC)n2C
-3%	CCCSC1=N/C(=C\c2ccsc2)C(=O)S1
?	c1cc2c(cc1NC1CCCCCC1)OCO2
-16%	CCN(CC)C(=O)C(=O)c1cccn1-c1c(Cl)cccc1C#N
7%	Fc1ccc(-c2ccc(CNCCSc3nnnn3-c3ccccc3)o2)cc1
0%	COC(=O)COc1ccc(S(=O)(=O)NCC2CCCO2)cc1Cl (centres undefined)

(list continues)
VDR inhibitor	Compound
-1%	COC(=O)c1cc(C(=O)N2CCN(C(=O)c3ccco3)CC2)cc([N+](=O)[O-])c1
-21%	O=C1NC2(CCCCC2)N(C(=O)c2ccccc2)C2=C1CCCC2
-1%	COc1cc([N+](=O)[O-])ccc1N1C(=O)C2C3C=CC(C4CC34)C2C1=O (centres undefined)
2%	COc1cc(C2C3C(=O)N(c4ccc(F)cc4)C(=O)C3ON2c2ccccc2)ccc1O (centres undefined)
-2%	COc1ccc(-c2cc(C3CC3)nc(N)c2C#N)cc1
3%	Cc1cccc(NC(=O)c2cnc3n(c2=O)CCS3)c1
-5%	COc1cccc(NC(=O)CCC(=O)Nc2cccc(OC)c2)c1
7%	CCc1ccccc1NC(=O)c1cc(=O)c2ccccc2o1
-10%	Cc1ccc2c(CN3CCCCC3C)cc(=O)oc2c1 (centres undefined)
-6%	CCc1ccc(CN(C)C(=O)CCc2nnc(CCc3ccccc3OC)o2)nc1
-11%	CCOC(=O)/C=C1\SCC(=O)N1CC(=O)Nc1cc(S(=O)(=O)N(C)C)ccc1C
-11%	CC1CC1C(=O)N1CCN(S(=O)(=O)c2cc(C(F)(F)F)cc(C(F)(F)F)c2)CC1 (centres undefined)

The list goes on.
VDR inhibitor	Compound
-15%	CC(NC(=O)COC(=O)c1cccnc1Cl)C12CC3CC(CC(C3)C1)C2 (centres undefined)
5%	CCc1ccc(CNC(=O)C2CCCN(S(=O)(=O)c3ccc4c(ccn4C)c3)C2)cc1 (centres undefined)
-9%	Cn1c(=O)c2c(nc(NCCCO)n2C/C=C/c2ccccc2)n(C)c1=O
-9%	Cn1c(SCC(=O)Nc2ccc(C(=O)O)cc2)nc2scc(-c3ccccc3Cl)c2c1=O
18%	COc1ccc(-n2cc(CNCCCN3CCCC3=O)c(-c3ccccc3Cl)n2)cc1
-3%	O=C(/C=C/Nc1cccc(F)c1)c1ccco1
3%	COc1ccc(C(=O)C(CO)Oc2ccccc2OC)cc1OC (centres undefined)
14%	CCOc1ccccc1OCCCC(=O)NC1CCCc2ccccc21 (centres undefined)
-6%	COc1cc2nc(N(CCN(C)C)C(=O)c3ccc4ccccc4c3)sc2cc1OC
-27%	Cc1cc(-c2nnc3n2N=C(c2ccccc2)CS3)n[nH]1
0%	COC(=O)c1sccc1-n1cccc1C(=O)C(=O)N1CCCC1
-8%	CC(C)Sc1nc2ccccc2[nH]1

Of the compounds above, these have bromine.
VDR inhibitor	Compound
-3%	O=C(Nc1cccc(-c2nc3ccccc3o2)c1)c1ccc(-c2ccc(Br)cc2)o1
2%	Cc1c(C(c2cc3c(cc2Br)OCO3)c2c(C)n(C)n(-c3ccccc3)c2=O)c(=O)n(-c2ccccc2)n1C
7%	O=C(C[n+]1cccc(O)c1)Nc1ccc(Br)cc1
?	CC(=O)N1CCN(c2ccc(NCc3ccc(Br)o3)cc2)CC1

New compounds follow.
VDR inhibitor	Compound
-5%	COc1ccc(S(=O)(=O)N2CCC(C(=O)NCCC(=O)NC3CC3)CC2)cc1
-1%	O=C(c1ccc(Cl)cc1Cl)c1ncc(C(F)(F)F)cc1Cl
-7%	CC(C(=O)Nc1ccc2[nH]c(=O)[nH]c2c1)N1CCN(Cc2ccc3c(c2)OCO3)CC1 (centres undefined)
-16%	CCOC(=O)c1cc2c(=O)n3ccccc3nc2n(CC2CCCO2)c1=NC(=O)c1ccccc1F (centres undefined)
-11%	COc1ccc(-c2nnc(SCC(=O)Nc3nncs3)o2)cc1
4%	CCOC(=O)N1CCN(S(=O)(=O)Cc2ccccc2)CC1
-20%	CC1CCN(S(=O)(=O)c2cccc(C(=O)Nc3nncs3)c2)CC1
4%	CCOc1cc(/C=N/NC(=O)CN2CCOCC2)ccc1OCc1ccc(Cl)cc1
-7%	C=CCn1c(C)c(C(=O)OCC)c2cc(O)c3ccccc3c21
-3%	Cc1ccc(CCN2CC(C(=O)NCc3ccc4c(c3)OCO4)CC2=O)cc1 (centres undefined)
4%	COc1ccc(/C(=C\C(=O)O)c2nccc3cc(OC)c(OC)cc23)cc1OC
8%	COC(=O)C(Cc1ccc(OC(=O)c2ccc(Cl)cc2)cc1)N1Cc2ccccc2C1=O (centres undefined)

Additional results follow.
VDR inhibitor	Compound
1%	CC(=O)Nc1ccc(NC(=O)c2cc(-c3ccc4c(c3)OCCO4)on2)cc1
2%	O=Cc1c(F)cccc1N1CCCC1
2%	NC(=O)N/N=C/c1cn(-c2ccccc2)nc1-c1cccs1
-11%	CCOc1ccccc1N1CC(C(=O)NNC(=O)c2ccc(F)cc2)CC1=O (centres undefined)
0%	O=C(Nc1ccc2oc(-c3ccccc3)nc2c1)c1cccs1
?	Clc1ccc(SCNc2ccccc2Cl)cc1
?	CCS(=O)(=O)Nc1ccc2[nH]c(=O)[nH]c2c1
9%	CS(=O)(=O)N1CCC(Oc2cccc(C(=O)NCCCOc3cccnc3)c2)CC1
18%	Cc1ccc(NC(=O)CSc2nc(=O)n(CCCN3CCOCC3)c3c2CCCC3)c(C)c1
4%	Cc1c(Cl)cccc1NC(=O)Cn1c(=O)nc(-c2ccccc2)c2ccccc21
-2%	CCCS(=O)(=O)N1CCN(Cc2ccccc2C(F)(F)F)CC1
-1%	Cc1nn(C)c2c1c(-c1ccccc1)cc(=O)n2CC(=O)NC(C)C

A different layout for some results above:
structure: CS(=O)(=O)N1CCC(Oc2cccc(C(=O)NCCCOc3cccnc3)c2)CC1
- VDR inhibitor: 9%
structure: Cc1ccc(NC(=O)CSc2nc(=O)n(CCCN3CCOCC3)c3c2CCCC3)c(C)c1
- VDR inhibitor: 18%

(next part)
VDR inhibitor	Compound
23%	O=C(O)C1CCN(C(=O)c2ccc(Cl)cc2)CC1
-13%	CC(C)(C)C1CCc2nc(NC(=O)Cc3ccc(Cl)cc3)sc2C1 (centres undefined)
-11%	CCn1c(SCC(=O)Nc2ccccc2)nc2nc3c(cc2c1=O)COC(C)(C)C3
-7%	Cc1ccc(-c2nc(=S)c3c(n2CC2CCCO2)CC(C)(C)OC3)cc1 (centres undefined)
55%[activator]	COc1ccc(-c2nc(C#N)c(N3CC(C)OC(C)C3)o2)cc1OC (centres undefined)
2%	COc1ccc(N2C(=O)CC(Nc3ccc(F)cc3)C2=O)c([N+](=O)[O-])c1 (centres undefined)
-18%&-13%&7%	C=C1CN(Cc2ccccc2)S(=O)(=O)c2ccccc21
7%	O=C(NC1(C(F)(F)F)NC(=O)N(Cc2ccccc2)C1=O)c1cccnc1 (centres undefined)
10%	CC(=O)C(Cc1ccccc1)NC(=O)COc1ccc2c(c1)OCO2 (centres undefined)
?	Cc1nn(-c2ccccc2)c(N)c1Sc1ccc([N+](=O)[O-])cc1
13%	COc1ccc2c(c1OC)C(=O)OC2CC(=O)c1ccc(O)c(O)c1 (centres undefined)
